Assay outcomes as filed in PubChem BioAssay.
RGS16-Gao – RGS16-Galphao interaction regulator (human) | AID 1441 | 0.38% of 220,000 active | O15492+P09471 | bead-based flow cytometry RGS16-Galphao binding, fluorescence; actives lie on both sides | binding response (% of control), % at 10 µM;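 active = below 25% or above 175%, edge rows of some plates excepted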;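 also: Galphao activated by GDP with aluminum fluoride before binding; 100% = wells without compound and 0% = beads without RGS; some results beyond the cut were filed as inactive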
Target sequence (O15492 whole entry, looked up): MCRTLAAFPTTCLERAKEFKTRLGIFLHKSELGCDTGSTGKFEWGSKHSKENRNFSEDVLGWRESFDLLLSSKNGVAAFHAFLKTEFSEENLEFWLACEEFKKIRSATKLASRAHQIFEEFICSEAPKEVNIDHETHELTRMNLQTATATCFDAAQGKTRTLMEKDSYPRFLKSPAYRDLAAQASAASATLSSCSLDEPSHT
Target sequence (P09471 whole entry, looked up): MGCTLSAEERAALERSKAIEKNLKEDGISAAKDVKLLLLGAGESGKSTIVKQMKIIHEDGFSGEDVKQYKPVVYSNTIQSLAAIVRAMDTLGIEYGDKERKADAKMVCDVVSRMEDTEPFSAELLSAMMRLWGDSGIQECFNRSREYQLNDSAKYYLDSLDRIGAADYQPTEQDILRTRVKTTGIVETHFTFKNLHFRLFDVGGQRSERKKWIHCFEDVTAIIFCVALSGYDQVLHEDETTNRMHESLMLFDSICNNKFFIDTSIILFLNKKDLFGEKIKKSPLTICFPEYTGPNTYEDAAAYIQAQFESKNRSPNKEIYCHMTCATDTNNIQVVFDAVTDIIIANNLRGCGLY
INS promoter inh – TRM-6 insulin promoter activity inhibition. TRM-6 cells (human fetal islet line), insulin promoter-eGFP reporter, imaging; reporter expression induced with tamoxifen. inhibition, % at 2 µM. 0.9% of 130,000 active;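 active = inhibition above the mean plus 3 SD, with well images judged a real hit on visual review, cut at about 60% in these data, passing the limit was not always enough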
PKD1 kinase inh – inhibitors of human PKD1 kinase. Q15139. PKD1 kinase fluorescence polarization assay. inhibition, %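 (about 10 µM by stock and volumes)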. 0.056% of 200,000 active. AID 797;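 active = inhibition of 50% or more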;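 also: controls were vehicle for no effect and a reference inhibitor for full effect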
HSV augment – HSV replication enhancement; HSV replication augmentation in cells, fold increase; maximum fold increase; 0.005% of 220,000 active;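 active = peak rise of 1.5-fold or more in the series; tested in PC3 cells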;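 also: first round at 10 µM; read as green reporter fluorescence; hits show the peak of a series up to 25 µM; 1 = signal of infected wells without compound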
GALR2 ag – activates the human galanin receptor 2; O43603; activation, %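 (tested at 5 µM)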; 0.48% of 140,000 active; GALR2-expressing cells, agonist activation read-out;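 active = above mean plus 3 SD of all compounds, about 5% in these data, not always enough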;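 also: 0% = vehicle buffer wells and 100% = reference agonist at full effect; tested in CHO reporter cells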
Target sequence (O43603 whole entry, looked up): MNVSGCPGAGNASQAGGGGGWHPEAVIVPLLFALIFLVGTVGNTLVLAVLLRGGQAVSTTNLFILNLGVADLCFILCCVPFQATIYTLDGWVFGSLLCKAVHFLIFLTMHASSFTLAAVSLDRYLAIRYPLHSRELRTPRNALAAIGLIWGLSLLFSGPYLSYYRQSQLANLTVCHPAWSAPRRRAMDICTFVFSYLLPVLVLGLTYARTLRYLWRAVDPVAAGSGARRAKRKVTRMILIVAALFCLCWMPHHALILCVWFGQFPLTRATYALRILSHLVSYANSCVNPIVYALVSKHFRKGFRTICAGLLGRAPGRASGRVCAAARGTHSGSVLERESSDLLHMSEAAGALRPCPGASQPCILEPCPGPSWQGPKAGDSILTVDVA
INS promoter inh cell count – recorded beside INS promoter inh, whose call it bears; normalized cell count, %; measured here: cell count, toxicity; reference of the scale not given here;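 cells exposed to compound for 48 h; stained nuclei by imaging scaled within each plate; lower means fewer cells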
HSV augment primary fold – second read-out of HSV augment, no call of its own (marks repeat the call); fold increase; compound at 10 µM; measured here: primary screen fold increase 10 uM; tested in PC3 cells;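 GFP signal in the first replicate; 1 = infected wells without compound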
Starred values were filed as active, the others as inactive.

Start of the data: the first 5 entries (preview)
Results for CC(=O)c1cc(-c2ccccc2)n(CC(=O)NC2CCCC2)c1C ?
RGS16-Gao: 99; INS promoter inh: -40; PKD1 kinase inh: 14; HSV augment: inactive; GALR2 ag: -1.4; INS promoter inh cell count: 76; HSV augment primary fold: 0.96

How did O=C(COC(=O)CSc1cc(Cl)ccc1Cl)NCc1ccc2c(c1)OCO2 do in these assays?
RGS16-Gao: 106; PKD1 kinase inh: -1; HSV augment: inactive; GALR2 ag: -0.3; HSV augment primary fold: 0.94

Results for COc1cccc(N=C2SC(C(=O)Nc3ccc(F)cc3)CC(=O)N2C)c1 (stereo not drawn) ?
RGS16-Gao: 95; PKD1 kinase inh: -9; HSV augment: inactive; GALR2 ag: -1.9; HSV augment primary fold: 0.94

How did CN1CCN(CCP(=O)(c2ccccc2)c2ccccc2)CC1 do in these assays?
INS promoter inh: -24; PKD1 kinase inh: -7; HSV augment: inactive; GALR2 ag: -1.1; INS promoter inh cell count: 253; HSV augment primary fold: 1

What do the screens show for `COCCOC(=O)c1c(C)oc2ccc(OC(=O)c3cccs3)cc12`?
RGS16-Gao: 96; PKD1 kinase inh: -6; HSV augment: inactive; GALR2 ag: -0.7; HSV augment primary fold: 0.92

The whole of this part, repeating the preview:
Results for CC(=O)c1cc(-c2ccccc2)n(CC(=O)NC2CCCC2)c1C ?
RGS16-Gao: 99; INS promoter inh: -40; PKD1 kinase inh: 14; HSV augment: inactive; GALR2 ag: -1.4; INS promoter inh cell count: 76; HSV augment primary fold: 0.96

How did O=C(COC(=O)CSc1cc(Cl)ccc1Cl)NCc1ccc2c(c1)OCO2 do in these assays?
RGS16-Gao: 106; PKD1 kinase inh: -1; HSV augment: inactive; GALR2 ag: -0.3; HSV augment primary fold: 0.94

Results for COc1cccc(N=C2SC(C(=O)Nc3ccc(F)cc3)CC(=O)N2C)c1 (stereo not drawn) ?
RGS16-Gao: 95; PKD1 kinase inh: -9; HSV augment: inactive; GALR2 ag: -1.9; HSV augment primary fold: 0.94

How did CN1CCN(CCP(=O)(c2ccccc2)c2ccccc2)CC1 do in these assays?
INS promoter inh: -24; PKD1 kinase inh: -7; HSV augment: inactive; GALR2 ag: -1.1; INS promoter inh cell count: 253; HSV augment primary fold: 1

What do the screens show for `COCCOC(=O)c1c(C)oc2ccc(OC(=O)c3cccs3)cc12`?
RGS16-Gao: 96; PKD1 kinase inh: -6; HSV augment: inactive; GALR2 ag: -0.7; HSV augment primary fold: 0.92

What do the screens show for `O=C(NNc1ccc([N+](=O)[O-])cc1)C1CC2CCCC(C1)C2=O` (stereo not drawn)?
RGS16-Gao: 107; INS promoter inh: 47; PKD1 kinase inh: -11; HSV augment: inactive; GALR2 ag: -2.4; INS promoter inh cell count: 66; HSV augment primary fold: 0.82

What do the screens show for `Cc1cc(C)c2[nH]c(=S)cc(C)c2c1`?
RGS16-Gao: 95; PKD1 kinase inh: -7; HSV augment: inactive; GALR2 ag: -2.3; HSV augment primary fold: 0.91

Results for CC(=O)Nc1ccc(NC(=O)C(C)OC(=O)CNS(=O)(=O)c2cccc(Cl)c2)cc1 (stereo not drawn) ?
RGS16-Gao: 100; PKD1 kinase inh: -1; HSV augment: inactive; HSV augment primary fold: 0.9

Results for COc1ccccc1N1CCN(/N=C/C=C/c2ccccc2[N+](=O)[O-])CC1 ?
RGS16-Gao: 100; HSV augment: inactive; HSV augment primary fold: 0.88

What do the screens show for `C=CCOC(=O)C(=O)/C=C/c1c(C)n(C)n(-c2ccccc2)c1=O`?
RGS16-Gao: 132; PKD1 kinase inh: 6; HSV augment: inactive; HSV augment primary fold: 1.1

What do the screens show for `CC(C)(C)c1ccc(S(=O)(=O)Nc2cccnc2)cc1`?
RGS16-Gao: 103; INS promoter inh: 26; PKD1 kinase inh: -1; HSV augment: inactive; GALR2 ag: -1.8; INS promoter inh cell count: 62; HSV augment primary fold: 0.91

What do the screens show for `CCOc1ccc(N2C(=O)CC(N(CCc3ccc(S(N)(=O)=O)cc3)C(C)=O)C2=O)cc1` (stereo not drawn)?
RGS16-Gao: 99; HSV augment: inactive; HSV augment primary fold: 0.84

What do the screens show for `Cc1ccc(NC(=O)OCCN2CCN(Cc3ccccc3)CCC2=O)cc1`?
RGS16-Gao: 107; INS promoter inh: -138; PKD1 kinase inh: -12; HSV augment: inactive; GALR2 ag: -2.4; INS promoter inh cell count: 35; HSV augment primary fold: 0.98

How did O=C(Nc1ccc(F)cc1)C1CCCO1 (stereo not drawn) do in these assays?
RGS16-Gao: 113; INS promoter inh: -11; PKD1 kinase inh: 0; HSV augment: inactive; INS promoter inh cell count: 100; HSV augment primary fold: 0.98

What do the screens show for `CCCSc1nsc(N)n1`?
RGS16-Gao: 107; INS promoter inh: 31; PKD1 kinase inh: 1; HSV augment: inactive; GALR2 ag: -1.1; INS promoter inh cell count: 91; HSV augment primary fold: 0.97

Results for CCNC(=S)N/N=C(\C)c1ccc2ccccc2c1OC(F)F ?
RGS16-Gao: 98; PKD1 kinase inh: -1; HSV augment: inactive; HSV augment primary fold: 0.97

What do the screens show for `COc1cc(NC2c3ccccc3C(=O)N2Cc2ccccc2Cl)cc(OC)c1OC` (stereo not drawn)?
RGS16-Gao: 95; HSV augment: inactive; HSV augment primary fold: 1

What do the screens show for `O=C(Nc1cccc(Cl)c1)OCc1cn(-c2ccccc2)nn1`?
RGS16-Gao: 104; INS promoter inh: 48; PKD1 kinase inh: 3; HSV augment: inactive; INS promoter inh cell count: 84; HSV augment primary fold: 0.97

How did O=C(Nc1ccc2c(c1)OCCO2)c1cccnc1Oc1ccc(Cl)cc1 do in these assays?
RGS16-Gao: 113; HSV augment: inactive; HSV augment primary fold: 0.86

Results for Cc1cc2nc(C)n(CCCNC(=O)Nc3ccccc3)c2cc1C ?
RGS16-Gao: 283; INS promoter inh: -20; PKD1 kinase inh: 2; HSV augment: inactive; GALR2 ag: -2.0; INS promoter inh cell count: 41; HSV augment primary fold: 0.94

Results for Cc1c(N2C(=O)C(=O)/C(=C(/O)c3ccc(Br)cc3)C2c2cccnc2)c(=O)n(-c2ccccc2)n1C (stereo not drawn) ?
RGS16-Gao: 101; INS promoter inh: 28; PKD1 kinase inh: -4; HSV augment: inactive; INS promoter inh cell count: 233; HSV augment primary fold: 0.94

How did N/C(=N\OC(=O)Cc1ccc(-c2ccccc2)cc1)c1cccc([N+](=O)[O-])c1 do in these assays?
RGS16-Gao: 105; INS promoter inh: 23; PKD1 kinase inh: -3; HSV augment: inactive; GALR2 ag: -0.9; INS promoter inh cell count: 95; HSV augment primary fold: 0.88

Results for CCOc1ccc(C(C)=O)cc1CN1C(=O)C(=O)N(CC)C1=O ?
RGS16-Gao: 95; PKD1 kinase inh: -7; HSV augment: inactive; HSV augment primary fold: 0.93

What do the screens show for `O=C(CSc1nc(-c2ccccc2)cs1)NCCN1C(=O)CSC1=O`?
RGS16-Gao: 102; PKD1 kinase inh: -4; HSV augment: inactive; HSV augment primary fold: 0.91

What do the screens show for `COC(=O)C(C)Sc1nnc(Cc2cc(=O)[nH]c(=O)[nH]2)n1-c1cc(C)ccc1C` (stereo not drawn)?
RGS16-Gao: 113; PKD1 kinase inh: -1; HSV augment: inactive; GALR2 ag: -2.2; HSV augment primary fold: 0.99

How did COc1ccc(C(=O)Nc2nc3ccccc3[nH]2)cc1OC do in these assays?
RGS16-Gao: 100; INS promoter inh: -17; PKD1 kinase inh: -4; HSV augment: inactive; GALR2 ag: -0.2; INS promoter inh cell count: 98; HSV augment primary fold: 1.1

How did O=C(NC(=S)Nn1cnnc1)c1ccccc1Br do in these assays?
RGS16-Gao: 93; HSV augment: inactive; HSV augment primary fold: 0.96

How did Cc1cc(C)c(C(N)=O)c(SCC(=O)c2cc(C)c(C)cc2C)n1 do in these assays?
RGS16-Gao: 104; PKD1 kinase inh: -1; HSV augment: inactive; GALR2 ag: -0.1; HSV augment primary fold: 0.91

What do the screens show for `COc1ccc(CN2CCN(C(=O)c3cccs3)CC2)cc1`?
RGS16-Gao: 107; PKD1 kinase inh: -4; HSV augment: inactive; GALR2 ag: -2.0; HSV augment primary fold: 1.1

Results for Cc1noc(C)c1COC(=O)c1ccc2ccccc2n1 ?
RGS16-Gao: 98; PKD1 kinase inh: -14; HSV augment: inactive; GALR2 ag: 0.2; HSV augment primary fold: 0.66

How did Cc1cccc(CC(=O)Nc2c3c(nn2-c2cccc(Cl)c2)CS(=O)C3)c1 (stereo not drawn) do in these assays?
RGS16-Gao: 103; INS promoter inh: 40; PKD1 kinase inh: -5; HSV augment: inactive; GALR2 ag: -3.1; INS promoter inh cell count: 100; HSV augment primary fold: 1

How did Cc1cccc(NC(=O)c2csnn2)n1 do in these assays?
RGS16-Gao: 108; INS promoter inh: -17; PKD1 kinase inh: 2; HSV augment: inactive; INS promoter inh cell count: 47; HSV augment primary fold: 0.9

What do the screens show for `Cc1cc(CN2CCCCC2)oc1C(=O)O`?
RGS16-Gao: 102; PKD1 kinase inh: -6; HSV augment: inactive; GALR2 ag: -4.0; HSV augment primary fold: 0.85

Results for O=C1OCCN1CC(=O)N1CCc2c([nH]c3ccccc23)C1c1ccccn1 (stereo not drawn) ?
RGS16-Gao: 96; PKD1 kinase inh: -7; HSV augment: inactive; HSV augment primary fold: 1.1

What do the screens show for `Cc1ccc2nc(NC(=O)CSc3ncnc4c3oc3ccccc34)sc2c1`?
RGS16-Gao: 100; PKD1 kinase inh: -8; GALR2 ag: -1.6

Results for COc1c(OC(C)=O)ccc(/C=C/c2ccc3cccc(OC)c3n2)c1[N+](=O)[O-] ?
RGS16-Gao: 52; PKD1 kinase inh: -5; HSV augment: inactive; GALR2 ag: -2.2; HSV augment primary fold: 0.94

What do the screens show for `COc1cc(C2C(C(=O)N3CCOCC3)=C(C)NC3=C2C(=O)CCC3)ccc1OC(C)=O` (stereo not drawn)?
RGS16-Gao: 94; INS promoter inh: 45; PKD1 kinase inh: -4; HSV augment: inactive; GALR2 ag: -2.6; INS promoter inh cell count: 95; HSV augment primary fold: 0.86

What do the screens show for `Cn1c(=NC(=O)CN2C(=O)C3CC=CCC3C2=O)sc2ccccc21` (stereo not drawn)?
RGS16-Gao: 101; INS promoter inh: 18; PKD1 kinase inh: -7; HSV augment: inactive; GALR2 ag: -0.2; INS promoter inh cell count: 152; HSV augment primary fold: 0.92

What do the screens show for `COCCn1c(-c2ccccc2)cnc1SCC(=O)Nc1cccc2ccccc12`?
RGS16-Gao: 121; INS promoter inh: -46; PKD1 kinase inh: 1; HSV augment: inactive; GALR2 ag: -2.3; INS promoter inh cell count: 59; HSV augment primary fold: 0.99

How did Cc1ccc([N+](=O)[O-])cc1S(=O)(=O)Nc1ccc(C(=O)N(C)C)cc1 do in these assays?
RGS16-Gao: 104; PKD1 kinase inh: -4; HSV augment: inactive; HSV augment primary fold: 1

How did CCC(C(=O)Nc1ccccc1-c1ccccc1)c1ccccc1 (stereo not drawn) do in these assays?
RGS16-Gao: 95; INS promoter inh: -62; PKD1 kinase inh: -1; HSV augment: inactive; GALR2 ag: -1.4; INS promoter inh cell count: 76; HSV augment primary fold: 1.2

Results for O=C(Nc1ccc2[nH]ccc2c1)c1cccs1 ?
RGS16-Gao: 94; HSV augment: inactive; HSV augment primary fold: 0.95

What do the screens show for `Cc1nc(C(=O)NNC(=O)c2ccc(C(F)(F)F)cc2)cs1`?
RGS16-Gao: 98; HSV augment: inactive; HSV augment primary fold: 0.89

How did COC(=O)c1cccc(NC(=O)c2ccc3c(c2)C(=O)N(CC2CCCO2)C3=O)c1 (stereo not drawn) do in these assays?
RGS16-Gao: 103; INS promoter inh: -33; PKD1 kinase inh: -1; HSV augment: inactive; GALR2 ag: -0.9; INS promoter inh cell count: 71; HSV augment primary fold: 1.2

How did Cc1cc(NC2CCCCC2)nc(N2CCOCC2)n1 do in these assays?
RGS16-Gao: 100; PKD1 kinase inh: 5; GALR2 ag: -1.7

Results for COc1cc(OC)c(NS(=O)(=O)c2cc(C(=O)OC(C)C(=O)NC3CC3)c(Cl)cc2Cl)cc1Cl (stereo not drawn) ?
RGS16-Gao: 109; INS promoter inh: -23; PKD1 kinase inh: 3; HSV augment: inactive; GALR2 ag: 0.5; INS promoter inh cell count: 98; HSV augment primary fold: 0.94

What do the screens show for `Cn1c(SCC(=O)Nc2cccc(S(=O)(=O)N3CCOCC3)c2)nnc1-c1ccncc1`?
RGS16-Gao: 97; PKD1 kinase inh: -3; HSV augment: inactive; HSV augment primary fold: 0.94

Results for CCC(C)NC(=O)Cn1c(COc2ccc(Cl)cc2Cl)nc2ccccc21 (stereo not drawn) ?
RGS16-Gao: 103; PKD1 kinase inh: 1; HSV augment: inactive; GALR2 ag: -0.2; HSV augment primary fold: 0.89
